Screening data as filed in PubChem.
Choline anaer gr – choline-fed anaerobic bacterial growth inhibition | Gram-negative bacterium anaerobic choline minimal medium, absorbance growth; stronger effect = lower value; many inactives read as strong as hits in the columns shown | calls only | 55,000 tested, 0.2% active | AID 1963822;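 active = growth z-score on choline under -2 at 7 or 20 h with little or no fall on glycerol, limits in tiers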;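 note: stock transfer was 300 nL into about 50 µL; the organism is E. coli; final concentration not given here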
Choline anaer gr early – also measured in Choline anaer gr; calls as there; z-score; measured here: choline growth z-score, timepoint 1;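 score of optical density at 7 h as mean of two plates; lower means less growth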
Starred values were filed as active, the others as inactive; i = inactive; & = joins results of further samples. Not all compounds are listed (hit frequency here may not be typical).

mol,Choline anaer gr,Choline anaer gr early
O=C(Nc1ccc(Cl)cc1)C1CCCN1S(=O)(=O)c1cccc2cccnc12 (configuration not stated),i,0.37
CCC(C)NC(=O)CN1C(=O)C2CCCC2=Nc2cc(C)c(C)cc21 (configuration not stated),i,0.71
O=C(c1ccc2c(c1)OCCO2)N1CCN(c2nc3c(F)cccc3s2)CC1,i,-0.23
CC(=O)Nc1sc2c(c1-c1nc3ccccc3s1)CCN(C(C)C)C2,i,-2.6
CCSc1nc2c(cnn2CCO)c(=O)[nH]1,i,-1.9
Cn1c(=O)[nH]c2c(C(=O)N3CCCC3)snc2c1=O,i,1.5
O=S(=O)(NCCn1c(-c2ccncc2)nc2cccnc21)c1cccc2nsnc12,i,-0.6
Cc1ccc(-c2nc(CN3CCN(C(=O)Nc4cc(C)cc(C)c4)CC3)c(C)o2)cc1,i,0.5
CCOc1ccc(N2C(=O)CN(Cc3cccnc3)[C@H]3CS(=O)(=O)C[C@H]32)cc1,i,0.11
CNC(CC(=O)O)C(=O)O (configuration not stated),i,-0.21&-0.24
CCc1nc2nc3c(c(N4CCN(c5ccc(C)cc5C)CC4)n2n1)CCC3,i,-0.54
O=C(Nc1cccc(Br)c1)Nc1c[nH]c(=O)[nH]c1=O,i,-0.6
CCCNC(=O)CC1CCN(C(=O)c2cc3ccccc3[nH]2)CC1,i,-0.22
O=C(CSc1nc(=O)n(Cc2ccncc2)c2c1CCC2)Nc1nc2ccccc2s1,i,3.2
Clc1ccc(CCNCc2cn3c(-c4cccc(Br)c4)nnc3s2)cc1,i,0.54
Cc1cc2c(cc1S(=O)(=O)N(C)CC(=O)NC(C)(C)C)OC(C)C(=O)N2 (configuration not stated),i,-0.5
CCC(C)NC(=O)c1noc2c1COc1ccccc1-2 (configuration not stated),i,-2.1
CCCCNC(=O)C1CCCN(S(=O)(=O)Cc2ccccc2Cl)C1 (configuration not stated),i,0.3
CCCNC(=O)N1c2ccccc2NC2=C(C(=O)CC(C)(C)C2)C1c1ccc(OC)cc1 (configuration not stated),i,-1.2
CCC1(CC)Cc2ccccc2-c2[nH]c(=O)n(CC3=CCCO3)c(=O)c21,i,-1.1
CCOC(=O)c1c(C)[nH]c(C)c1S(=O)(=O)N1CCC(C(=O)Nc2ccc(C)cn2)CC1,i,0.01
CC(C)OCCCn1c(=O)c2cc(Cl)ccc2n2c(SCc3ccccc3Cl)nnc12,i,-2.2
COc1ccc(/C=C/c2nc(-c3ccc4c(c3)nnn4C3CCCC3)no2)cc1OC,i,1.2
O=C(Cc1cccs1)NC1CCN(c2ccc(N3CCSCC3)nn2)CC1,i,0.7
CCCOc1ccc(-c2nn3c(=O)c(NC(=O)c4ccccc4)cnc3o2)cc1,i,0.15
COc1ccccc1CNC(=O)c1ccc(CSc2nc3ccncc3n2Cc2ccc(F)cc2)cc1,i,0.08
Cc1ccc2onc(CNC(=O)NCCCN3CCN(c4cc(Cl)ccc4C)CC3)c2c1,i,-0.3
O=C(Nc1cc(-c2ccccc2)nn1-c1ccccc1)c1ccccc1,i,-1.6
CCOC(=O)C1CCCN(C(=O)c2ccc(NC(=O)N3CCSc4nc(C)cc(C)c43)cc2)C1 (configuration not stated),i,0.2
Cc1cc2oc(C(=O)N(Cc3ccc(N(C)C)cc3)CC3CCCO3)c(C)c2cc1Cl (configuration not stated),i,0.19
Cc1nn(-c2ccc3nncn3n2)c(C)c1CCC(=O)NCc1ccc2c(c1)OCO2,i,0.18
O=C(CCn1cnc2ccccc2c1=O)NC1CCCc2ccccc21 (configuration not stated),i,-0.8
COC(=O)c1cc(S(=O)(=O)N2CCCC2C(=O)N2CCc3ccccc32)cn1C (configuration not stated),i,-0.18
Cc1nn(S(=O)(=O)c2ccc3c(c2)CCCC3)c(C)c1S(=O)(=O)N1CCCC(C)C1 (configuration not stated),i,0.39
COc1ccc(C(=O)Nc2cnc(N3CCN(CC(=O)N4CCCC4)CC3)c(C(=O)O)c2)cc1,i,-0.02
COc1ccc(C2=C(C)C(N3CCC(C(=O)N4CCC(C(N)=O)CC4)CC3)=NS2(=O)=O)cc1,i,-2
Fc1cccc(-c2nnc3sc(-c4cc5ccccc5[nH]4)nn23)c1,i,-1.4
O=C(CCc1nc(CSc2nnc(-c3ccccc3)o2)no1)Nc1ccccc1F,i,1.4
Cc1cccc(-c2nccc(Oc3ccc(C(=O)Nc4ccc5c(c4)OCCO5)cc3)n2)c1,i,-0.53
O=c1n(Cc2ccc(F)cc2)nc2c(S(=O)(=O)N3CCOCC3)cccn12,i,-0.28
O=S1(=O)N=CN(c2ccc(Br)cc2)c2ncccc21,i,0.18
COc1cn(CC(=O)NCCc2ccccc2)c(CN2CCC(C)CC2)cc1=O,i,0.33
O=C(Nc1ccc(Cl)cc1)N(Cc1nnc2n1CCCCC2)c1ccccc1,i,0.03
Cc1ccc2c(c1)OC(C1CCCCC1)C(=O)N2 (configuration not stated),i,0.09
CCS(=O)(=O)Nc1ccc(C2(C(=O)N3CCN(C(C)C)CC3)CCCCC2)cc1,i,-0.74
COc1ccc(Oc2c(C(F)(F)F)oc3cc(O)ccc3c2=O)cc1,i,-1
Cc1nn(-c2ccc(F)cc2)c2sc(C(=O)Nc3ccc(Cl)cc3)cc12,i,0.45
CCC(C(=O)NCc1ccc(OC)cc1)N1C(=O)CCCc2ccccc21 (configuration not stated),i,-0.07

Some of the entries so far, field by field.
> COc1cn(CC(=O)NCCc2ccccc2)c(CN2CCC(C)CC2)cc1=O
  Choline anaer gr: i
  Choline anaer gr early: 0.33

> O=C(Nc1ccc(Cl)cc1)N(Cc1nnc2n1CCCCC2)c1ccccc1
  Choline anaer gr: i
  Choline anaer gr early: 0.03

> Cc1ccc2c(c1)OC(C1CCCCC1)C(=O)N2 (configuration not stated)
  Choline anaer gr: i
  Choline anaer gr early: 0.09

> CCS(=O)(=O)Nc1ccc(C2(C(=O)N3CCN(C(C)C)CC3)CCCCC2)cc1
  Choline anaer gr: i
  Choline anaer gr early: -0.74

(continued)
mol,Choline anaer gr,Choline anaer gr early
COc1ccc(CNC(=O)c2cccc(Oc3cc(-c4cccc(F)c4)ncn3)c2)c(OC)c1,i,0.87
C=C1/C(=C\C=C2/CCC[C@]3(C)[C@@H]([C@H](C)/C=C/[C@@H](O)C4CC4)CC[C@@H]23)C[C@@H](O)C[C@@H]1O,i,0.38&-0.34&0.15
Cn1c(=O)n(C)c2cc(N3CCCCC3)c(NC(=O)c3sc4ccccc4c3Cl)cc21,i,0.59
CCOC(=O)c1cc(-c2ccccc2)n(CC(=O)NCC2COc3ccccc3O2)c1C (configuration not stated),i,0.78
COc1ccc(Cc2nnc3sc(Cc4ccc(Cl)cc4)nn23)cc1,i,-0.56
CC(NC(=O)Nc1cccc(Cl)c1)c1c(-n2cccc2)sc2c1CCCC2 (configuration not stated),i,0.4
Cc1ccc(-c2csc3c(=O)n(C(C)C)cnc23)cc1,i,-0.19
Cc1sc(-c2noc(C3CCC3)n2)cc1S(=O)(=O)N1CCCC(C(=O)NC2CCCCC2)C1 (configuration not stated),i,-0.88
CCn1cc(CN2CCCC2c2cc(C(C)C)on2)c2cc(OC)ccc21 (configuration not stated),i,0.6
CCOCCCNCc1ccc(-c2ccc(F)cc2)o1,i,-1.7
Cc1cccc(OCC(=O)Nc2ccccc2SCc2cc(=O)n3oc(C)cc3n2)c1,i,0.3
CC(=O)N1N=C(c2nnn(-c3nonc3N)c2C)OC1c1ccc(F)c(Br)c1 (configuration not stated),i,-1.4
CC(=O)Nc1nc2ccccc2n1CCCN(C)C,i,0.25
O=C(Nc1ccc(Cl)cc1)Nc1ccc(SCc2nnc(-c3ccccc3)o2)cc1,i,1.4
Cc1ccc(-n2nc(N3CCCN(C(=O)c4cc5ccccc5[nH]4)CC3)ccc2=O)cc1,i,-0.11
Cc1ccc(OCCCn2c(COc3ccccc3)nc3ccccc32)cc1,i,1.1
Cc1cc(=O)nc2c3ccccc3n(CC(=O)NCc3cccc(Cl)c3)n12,i,-0.69
COc1cccc(CN2C(=O)c3ccccc3Sc3ccc(C(=O)N(C)Cc4ccccc4)cc32)c1,i,1.4
CCCCCCCCCCCCCC(=O)O,i,-0.61
CCCN1CCN(C(=O)c2[nH]c3cc(C)sc3c2CN2CCCC2)CC1,i,0.65
Cc1ccc2cc(-c3noc(CCC(=O)NC4CCCC4)n3)c(=O)[nH]c2c1,i,-0.14
CN(C)c1ncnc2c1c(-c1ccccc1)cn2-c1ccc(F)cc1,i,0.65
CCOC(=O)c1cccc(NC2c3ncccc3C(=O)N2c2ccc(OC)cc2)c1 (configuration not stated),i,0.61
Cc1nnc(Nc2ccc(Cl)cc2)[nH]c1=O,i,-0.48
COc1cccc(-c2cc(C(F)(F)F)n3nc(C(=O)N4CCCC4c4cc(C)on4)cc3n2)c1 (configuration not stated),i,0.53
O=C(c1ccc(N2CCCC2)c(S(=O)(=O)N2CCCC2)c1)N1CCN(c2ccccc2)CC1,i,-0.05
CC(C)N1CCN(C(=O)c2n[nH]c3c2CCCC3)CC1,i,-1.1
CCOC(=O)c1[nH]c(C)c(CCC(=O)N2CCN(c3ccc(Cl)cc3)CC2)c1C,i,-1.5
O=C(CN1C(=O)CSc2sc(S(=O)(=O)N3CCCC3)cc21)NCc1ccccc1,i,0.37
COc1ccc(NC(=O)CCc2nc3sc4c(c3c(=O)[nH]2)CCCCC4)cc1OC,i,-0.76
CN1CCCN(c2cc(C(=O)O)c3cc(NC(=O)c4ccc(Br)cc4)ccc3n2)CC1,i,0.47
C=CCn1c(SCC(=O)c2ccc(OC)cc2)nc2sc3c(c2c1=O)CCCC3,i,0.18
COC(=O)c1sccc1S(=O)(=O)N1CCN(c2ccccn2)CC1,i,-1.9
Cc1ccc(Cc2cnc(NC(=O)C3=Cc4ccc(C)cc4OC=C3)s2)cc1,i,-0.08
COc1ccc(-c2[nH]nc3c2C(c2ccc(OC)c(OC)c2)C2=C(CC(C)(C)CC2=O)N3)cc1 (configuration not stated),i,-1.4
CC(=O)N1C(=O)C(=O)c2cc(S(=O)(=O)N3CCOCC3)ccc21,i,0.16

Brought forward from above: 2 compounds; new compounds follow.
mol,Choline anaer gr,Choline anaer gr early
COc1ccc(-c2[nH]nc3c2C(c2ccc(OC)c(OC)c2)C2=C(CC(C)(C)CC2=O)N3)cc1 (configuration not stated),i,-1.4
CC(=O)N1C(=O)C(=O)c2cc(S(=O)(=O)N3CCOCC3)ccc21,i,0.16
Cc1ccc(C(=O)Nc2nc3c(s2)CN(C)CC3)cc1,i,-1.8
Cc1ccc(O)c(NC(=O)c2noc3c2CCc2ccccc2-3)c1,i,-0.71
Cc1nc(-c2cc(S(=O)(=O)NC3CCCCCCC3)c(C)s2)sc1C,i,0.04
CCS(=O)(=O)N1CCCC(OCc2nc(C)no2)C1 (configuration not stated),i,1.3
Cc1ccccc1C(OCCN(C)C)c1ccccc1 (configuration not stated),i,-0.38&-0.3&-0.23
Cc1cc(C)c(C(=O)Nc2ccccc2C)c(SCC(=O)Nc2sc3c(c2C#N)CCCC3)n1,i,-0.69
Cc1ccc(NC(=O)CC(=O)Nc2ccc3nc4n(c(=O)c3c2)CCCCC4)cc1F,i,-0.03
CN(C)S(=O)(=O)c1ccc(-c2noc(C(=O)NC3CCN(Cc4ccccc4)CC3)n2)cc1,i,-0.1
Cc1ccc(-n2nnc3c(N4CCN(C(=O)c5ccc6c(c5)OCO6)CC4)ncnc32)cc1,i,0.34
CCC(Oc1ccccc1)C(=O)Nc1ccc2oc(-c3cccc(C)c3)nc2c1 (configuration not stated),i,-0.28
Cc1ccc2[nH]cc(CCNC(=O)CC3CCN(C(=O)NC4CCCCC4)CC3)c2c1,i,-0.22
CCOc1ccc(NC(=O)CCc2nc3sc4c(c3c(=O)[nH]2)CCC(C(C)(C)C)C4)cc1 (configuration not stated),i,2.3
CC(C)C(=O)NCCC1CCN(C(=O)c2ccccc2)CC1,i,-0.4
Cc1noc(C)c1C1CCCN1Cc1ccccc1Cl (configuration not stated),i,-2.2
COc1ccc(CNC(=O)c2ccc3c(c2)NC(=O)C2CCCCN32)cc1 (configuration not stated),i,0.43
Cc1nn(-c2cc(N3CCCCC3)ncn2)c(C)c1CCC(=O)N1CCCC1,i,-1.6
Cc1cccc(NC(=O)Cn2nc3c4cc(-c5ccccc5)nn4ccn3c2=O)c1,i,-0.08
O=c1c2oc3ccccc3c2ncn1Cc1ccccc1,i,1.1
C=CCNc1ncccc1-c1nc(-c2ccc(C)cc2)no1,i,2.1
O=C1C2N=NN(c3ccc(Cl)cc3)C2C(=O)N1c1ccccc1 (configuration not stated),i,0.35
COc1ccc(CNC(=O)c2nnc3ccc(-c4ccccc4)nn23)cc1,i,0.05
COc1ccc2cc3c(N)nn(C(=O)c4cccc(Cl)c4)c3nc2c1,i,-1.4
CCC(=O)c1ccc(O)cc1,i,-0.84
O=c1oc2cc(S(=O)(=O)N3CCOCC3)ccc2n1Cc1noc(C2CC2)n1,i,0.33
CCc1onc(C)c1C1CCCN1Cc1cn[nH]c1-c1ccc(C)cc1 (configuration not stated),i,-0.86
CC(C)C(=O)NC1CC(=O)N(c2ccc3c(c2)OCCO3)C1 (configuration not stated),i,-0.84
